# D2 ag: Beta-Arrestin HTS for Positive Allosteric Modulators of the Human D2 Dopamine Receptor: Agonists | activation, % (no concentration beside the values) | 360,000 tested, 0.084% active | AID 624465, 2012 | DiscoveRx PathHunter D2 beta-arrestin, luminescence, 90 min; 100% = 57 uM dopamine signal; in the data active = activation above about 40%; inconclusive = about 15% to 40%; inactive = below about 15%; also: compound concentration not given in the record; the text of the record calls up to 30% inactive
# Target sequence (P14416 whole entry, looked up): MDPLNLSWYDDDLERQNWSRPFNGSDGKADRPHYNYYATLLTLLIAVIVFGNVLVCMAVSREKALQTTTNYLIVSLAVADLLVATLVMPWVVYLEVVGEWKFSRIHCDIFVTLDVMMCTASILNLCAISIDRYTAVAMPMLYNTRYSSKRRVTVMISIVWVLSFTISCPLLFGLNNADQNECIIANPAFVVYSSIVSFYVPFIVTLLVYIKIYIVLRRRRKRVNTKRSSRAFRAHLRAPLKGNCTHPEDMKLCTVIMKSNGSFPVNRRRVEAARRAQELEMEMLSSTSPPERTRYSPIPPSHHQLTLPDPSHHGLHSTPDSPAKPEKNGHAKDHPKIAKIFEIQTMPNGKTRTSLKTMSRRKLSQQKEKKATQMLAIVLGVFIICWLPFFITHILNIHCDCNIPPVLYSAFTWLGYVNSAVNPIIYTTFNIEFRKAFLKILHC
#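 Agonist mode: compounds alone added to overnight-plated D2 PathHunter cells for 90 min at 37 C, with 57 uM final dopamine (EC100) defining full response. Beta-arrestin recruitment detected by chemiluminescent reagent, read after 1 h at ambient temperature.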
# D2 potentiator: Beta-Arrestin HTS for Positive Allosteric Modulators of the Human D2 Dopamine Receptor: Potentiators. D(2) dopamine receptor (Homo sapiens), P14416. DiscoveRx D2 beta-arrestin cells, luminescence, 90 min; 100% = 57 uM dopamine signal. potentiation, % (test concentration not listed). 360,000 tested, 0.23% active. AID 624464, 2012; active = potentiation of 50% or more; inconclusive = 30% to 50%; inactive = 30% or less;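 also: compound concentration not given in the record; tested on top of an EC20 dose of dopamine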
#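 PathHunter beta-arrestin assay in DiscoveRx D2 cells. Compounds were added with an EC20 of dopamine (50 nM final) for 90 min at 37 deg C. Luminescence was read 1 h after detection reagent, with 57 uM dopamine as the EC100 control.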
# CtBP-E1A blk: qHTS Assay for Inhibitors of the CtBP/E1A Interaction; CtBP / adenovirus E1A interaction (AlphaScreen); AlphaScreen GST-E1A/His-CtBP binding, 1536-well; stronger effect = lower value; control for the full effect not named in the record; activity change, % (concentration not given with the values); 340,000 tested, 0.49% active; AID 651724, 2012; in the data active means activity change below about -65%; inconclusive means about -30% to -65%; inactive means above about -30%; also: % is scaled to controls: 0 for no effect and ±100 for the full control effect
#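 Homogeneous bead-based format: GST-tagged E1A captured on glutathione donor beads, His-tagged CtBP on nickel acceptor beads; compounds precede bead addition by 2 h at 37 °C.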
# Six1-Eya2 blk: qHTS Assay for Inhibitors of the Six1/Eya2 Interaction | 360,000 tested, 0.56% active | Homeobox protein SIX1 (Homo sapiens) + Protein phosphatase EYA2 (Homo sapiens), … | activity change, % (concentration not given with the values) | AlphaScreen GST-Six1/His-Eya2 binding, biochemical; stronger effect = lower value; control for the full effect not named in the record; in the data active = activity change below about -65%; inconclusive = about -30% to -65%; inactive = above about -30%; also: % is scaled to controls: 0 for no effect and ±100 for the full control effect
#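 AlphaScreen luminescence read after one hour at 37 °C in darkness. Pin-transferred compounds met GST-Six1 and His-Eya2 protein (5X stock 250 nM/500 nM) plus glutathione donor and Ni-chelate acceptor beads (5X, 50 ug/mL).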
# PINK1 expr mod: A Quantitative High throughput Screen to Identify Chemical Modulators of PINK1 Expression. AID 624263, 2012. Potency, µM (highest dose often 76.6 µM), without a hit: top-dose activation (PINK1 increase), most hits filed as activators. PINK1 immunofluorescence, high-content cytometry, 24 h. 410,000 tested, 0.2% active; active = well fitted activation curve with a large enough effect; inconclusive = small, poorly fitted or top-dose-only effect; inactive = flat fitted curve, though single readings scatter; cell line not stated here;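 also: potency is read from the fitted curve at half-maximal effect; % of control where 0% means no effect; nearly all actives have a fitted effect of over 65% in size; a mitochondrial uncoupler was the plate control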
#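 Measures PINK1 amount and localization on or inside mitochondria by immunofluorescence. Stable cells get compounds at 5 concentrations for 24 hours before fixation and staining; CCCP controls included.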
# TRPML1 agonist: qHTS for Agonists of the Human Mucolipin Transient Receptor Potential 1 (TRPML1). TRPML1-expressing cells, Ca2+ dye fluorescence, FDSS; host cell line not named in the record; reference of the full effect not given here. Mucolipin-1 (Homo sapiens), Q9GZU1. 410,000 tested, 0.12% active. activation, % (concentration not given with the values); in the data active = activation above about 50%; inconclusive = about 30% to 50%; inactive = below about 30%; also: 0% is about no effect; the text of the record puts the active cut at 80%
# Target sequence (Q9GZU1 whole entry, looked up): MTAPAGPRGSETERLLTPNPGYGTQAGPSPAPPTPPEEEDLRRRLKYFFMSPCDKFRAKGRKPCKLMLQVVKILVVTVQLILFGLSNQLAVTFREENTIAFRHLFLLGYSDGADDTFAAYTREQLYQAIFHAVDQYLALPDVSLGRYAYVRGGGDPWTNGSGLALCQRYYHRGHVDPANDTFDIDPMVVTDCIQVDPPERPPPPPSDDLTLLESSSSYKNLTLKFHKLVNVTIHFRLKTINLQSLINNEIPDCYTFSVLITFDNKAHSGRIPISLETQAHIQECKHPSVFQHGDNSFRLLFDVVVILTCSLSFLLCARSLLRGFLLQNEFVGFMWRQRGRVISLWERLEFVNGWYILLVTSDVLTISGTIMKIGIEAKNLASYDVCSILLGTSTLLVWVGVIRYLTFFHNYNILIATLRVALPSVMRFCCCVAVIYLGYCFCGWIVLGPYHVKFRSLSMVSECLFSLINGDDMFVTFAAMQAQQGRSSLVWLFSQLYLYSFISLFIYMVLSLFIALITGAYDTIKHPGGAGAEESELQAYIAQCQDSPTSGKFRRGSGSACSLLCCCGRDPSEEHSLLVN
#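 Cells: TRPML1-DL, 1X Tet inducer, ~16 h at 37 degrees C/5% CO2. Dye: ABD Ca8 no-wash + quencher, 45-90 min RT. Read: 10 s baseline, compound add, 110 s agonist phase; 54-4 EC80 (4uM final), 110 s antagonist phase.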
# * hit, by the source's call; ? = inconclusive; . = no result given; & = joins results of further samples; [ ] = remark or other dose.
no.	compound	D2 ag	D2 potentiator	CtBP-E1A blk	Six1-Eya2 blk	PINK1 expr mod	TRPML1 agonist
1	O=C(CN1CCOCC1)NNC(=O)c1ccc(Cl)cc1	0.0	0	2	4	0.6%	0.9
2	CC(=O)Nc1cccc(NC(=O)C2CC(=O)N(c3ccc(C)cc3)C2)c1 (configuration not stated)	-1.7	1	5	-1	1.8%[38.3 µM]	0.0
3	CCc1cccc(NC(=O)C2CCCN(S(=O)(=O)c3c(C)[nH]c(=O)[nH]c3=O)C2)c1 (configuration not stated)	-7.2	-6	-2	6	0.9%	0.3
4	Cc1ccc2ncccc2c1	-0.8	-8	2	-3	1.1%	-0.3
5	Oc1[nH]c2ccc(Br)cc2c1N=NC(=S)NCC1CCCO1 (configuration not stated)	0.3	-13	12	-4	3.6%	0.9
6	Cc1cc2nc3c(=O)[nH]c(=S)[nH]c3nc2cc1NC(=O)C(F)(F)F	-2.7	-7	?	?	-2.2%	29
7	Cc1ccc(CNC(=O)C(=O)c2cn(CC(=O)N3CCCC3)c3ccccc23)cc1	-1.9	1	-1	0	1.9%	2.4
8	CCOc1ccc(NC(=O)CN(C)c2nnnn2-c2ccccc2)cc1OCC	-1.9	-11	4	3	-1.3%	-0.7
9	CCCN1C(=O)C(=O)N(CC(=O)c2cc(C)n(C3CC3)c2C)C1=O	3.9	-2	-8	0	0.0%	0.9
10	O=C(NCc1ccccc1C(F)(F)F)C1CCC(=O)N(C2CCCCCC2)C1 (configuration not stated)	1.9	-17	6	10	2.8%	0.1
11	Cc1ccc(CONC(=O)c2ccc([N+](=O)[O-])cc2)cc1	0.0	-3	-5	1	0.4%	-0.1
12	CCOP(=O)(OCC)C(Nc1cccc(C(F)(F)F)c1)c1ccc(C)cc1 (configuration not stated)	-2.1	-9	-1	7	8.8%	0.1
13	CCC1CCCCN1CCCNC(=O)CN1C(=O)c2cccnc2Oc2ccc(Cl)cc21 (configuration not stated)	-3.2	-27	-7	0	-0.8%&-0.3%	0.3&0.8
14	COc1ccc(-n2nc(C)c3c(=O)c4c([nH]c32)CCCC4)cc1	-0.7	-19	-10	-14	8.2%	.
15	O=C(CSC1=NCCS1)Nc1ccccc1F	-3.3	-8	6	12	-0.4%	1.5
16	CCCc1cc(=O)oc2c(C)c(OCC(=O)NCCCN3CCOCC3)ccc12	0.7	-5	-25	-18	-0.5%	0.1
17	CCN(CC)c1nc(N)n(CCSC(=S)N(C)C)c(=O)n1	-0.6	0	.	2	0.6%	0.2
18	C=CCc1cccc(C=Nc2ccc(Br)cc2)c1O	-2.9	-6	.	-5	2.5%	0.3
19	O=C(C1=C(O)C(=O)N(CC2CCCO2)C1c1ccc(Cl)cc1)c1ccco1 (configuration not stated)	-2.9	-10	-6	2	1.2%	-0.3
20	CC1=CC(C)C(/C=N/n2cnnc2)C(C)C1 (configuration not stated)	-2.1	-4	-1	-5	0.5%	-0.1
21	C=CC[C@H](CC(=O)N(CCO)Cc1ccccc1)C(=O)N[C@H](COC(=O)[C@@H](CC=C)Cc1ccc(F)cc1)Cc1ccccc1	-4.9	0	1	-1	6.4%	0.2
22	COCCN(C(=O)c1oc2ccccc2c1COC)c1c(N)n(CC(C)C)c(=O)[nH]c1=O	-3.8	-14	-4	7	0.5%	0.3
23	COc1ccc(C(O)c2nc(-c3ccc(N(C)C)cc3)cs2)cc1 (configuration not stated)	7.4	2	?	?	2.7%	-0.2
24	CCc1cc(=O)oc2cc(C)cc(OCC(=O)NCCN3CCOCC3)c12	-1.5	-4	2	1	-0.9%	-0.8
25	COc1ccc(C(=O)NC2=NCCS2)c(OC)c1	6.3	-1	-2	-3	0.6%	-0.1
26	C=CCNC(=O)CSc1nnc(-c2cccs2)o1	0.6	-4	8	2	-0.3%	0.8
27	CCNC(=O)N1C(=O)C2(OCCO2)c2cc(Br)ccc21	-2.7	-17	1	-2	0.2%	-1.0
28	COC(=O)c1ccc(Oc2nc(C)cc(Oc3ccccc3)n2)cc1	-3.3	3	13	15	-0.7%	2.6
29	COc1cccc(CN2CCNC(=O)C2CC(=O)O)c1OC (configuration not stated)	-1.9	1	-23	17	5.8%	-0.3
30	O=[N+]([O-])c1ccc2c(c1)nc1n2CCN(c2ccccc2)C1	-8.7	-10	0	-17	3.0%	.

# Arranged by molecular weight (high to low): part of the list above.
no.	compound	D2 ag	D2 potentiator	CtBP-E1A blk	Six1-Eya2 blk	PINK1 expr mod	TRPML1 agonist
19	O=C(C1=C(O)C(=O)N(CC2CCCO2)C1c1ccc(Cl)cc1)c1ccco1 (configuration not stated)	-2.9	-10	-6	2	1.2%	-0.3
24	CCc1cc(=O)oc2cc(C)cc(OCC(=O)NCCN3CCOCC3)c12	-1.5	-4	2	1	-0.9%	-0.8
23	COc1ccc(C(O)c2nc(-c3ccc(N(C)C)cc3)cs2)cc1 (configuration not stated)	7.4	2	?	?	2.7%	-0.2
30	O=[N+]([O-])c1ccc2c(c1)nc1n2CCN(c2ccccc2)C1	-8.7	-10	0	-17	3.0%	.
25	COc1ccc(C(=O)NC2=NCCS2)c(OC)c1	6.3	-1	-2	-3	0.6%	-0.1

# Single values from the entries so far.
# O=C(C1=C(O)C(=O)N(CC2CCCO2)C1c1ccc(Cl)cc1)c1ccco1 (configuration not stated) in D2 potentiator has -10
# CCCc1cc(=O)oc2c(C)c(OCC(=O)NCCCN3CCOCC3)ccc12 in D2 ag has 0.7
# CCc1cc(=O)oc2cc(C)cc(OCC(=O)NCCN3CCOCC3)c12 in PINK1 expr mod has -0.9%

# Remaining list, next part
no.	compound	D2 ag	D2 potentiator	CtBP-E1A blk	Six1-Eya2 blk	PINK1 expr mod	TRPML1 agonist
31	COC(=O)CSc1nnc(SCc2ccc(OC)cc2)s1	-3.6	0	19	23	-1.5%	0.7
32	COc1ccc(S(=O)(=O)N2CCC(C(=O)NCc3ccco3)CC2)cc1	0.0	5	5	1	1.0%	-1.2
33	COc1ccc(NC(=O)CN(C)C(=O)c2cccc(S(=O)(=O)Nc3ccc(OC)cc3)c2)cc1	0.1	-11	-18	-2	-0.2%	-0.1
34	COc1cc(C(=O)Oc2ccc3ccc(O)cc3c2)cc(OC)c1OC	12	4	.	-12	10%	-1.2
35	Cc1ccc(OCc2cc(C(=O)NCc3cn4ccccc4n3)no2)cc1C	-0.3	-9	-2	-2	-0.2%	-0.9
36	Cc1ccccc1S(=O)(=O)NC(=O)C1(C)CCN1C(=O)CCc1ccccc1 (configuration not stated)	-5.1	-5	0	10	0.4%	2.4
37	Nc1cc(=O)[nH]c(=O)n1Cc1ccco1	-2.9	-20	0	3	-0.9%	0.4
38	CC12CCC(C(=O)NNC(=O)c3ccc(F)cc3)(OC1=O)C2(C)C (configuration not stated)	0.1	0	-6	3	1.4%	-0.3
39	CC(NC(=O)c1ccccc1)C(=O)OCC(=O)c1c(N)n(C)c(=O)n(C)c1=O (configuration not stated)	-1.4	0	-1	0	0.6%	0.5
40	O=C(CNC(=O)OCc1ccccc1)NC1CCCCCCC1	-1.2	-17	10	4	1.9%	-0.1
41	CC(CN1CCOCC1)OC(=O)Cc1ccc(Cl)cc1 (configuration not stated)	-0.4	4	-6	8	1.8%	-0.4
42	Cc1cc(C)cc(NC(=O)CN2CCN(CCN=CC3=C(O)CC(c4ccc(Cl)cc4)CC3=O)CC2)c1 (configuration not stated)	1.2	-4	2	-4	-0.6%	0.6
43	COc1ccccc1C=NN=C1c2ccccc2-c2ccccc21	-2.8	-7	-8	-24	10%	2.2
44	COc1cc(NC(=O)CNc2cccc(S(=O)(=O)N3CCCC3)c2)cc(OC)c1	1.5	-16	-3	-4	-0.6%	-0.4
45	Nc1cccc(C(=O)NCCNC(=O)c2cccc(N)c2)c1	5.2	-3	.	1	2.0%	-0.1
46	O=C(Oc1c(-c2ccccc2)oc2ccccc2c1=O)c1ccccc1	-4.0	-17	10	8	1.2%	1.7
47	CC1CCN(C(=O)c2ccc(Br)c(S(=O)(=O)N3CCOCC3)c2)CC1	-1.5	-4	6	-4	0.9%	0.5
48	O=C(CSc1nnnn1CCCO)Nc1ccc2c(c1)OCO2	0.9	4	14	-9	2.2%	-0.7
49	Cc1ccc2nc(-c3ccccc3)cn2c1	0.4	-23	-2	0	-0.3%	1.8
50	CCOC(=O)NC1(Nc2ccc(C)cc2)Oc2ccccc2O1	8.5	15	-3	-10	1.7%	1.1
51	COC(=O)C1C(O)=CC(=O)CC1C (configuration not stated)	-0.5	1	-5	-1	-1.2%	0.1
52	COC(=O)/C(N=Nc1c(C)n(C)n(-c2ccccc2)c1=O)=C(\C)O	-6.0	-1	-27	-12	-0.2%	2.0
53	CC(=O)Nc1ccc(NC(=O)c2csc([C@@H]3C[C@H](O)[C@@H](CO)O3)n2)cc1	-3.4	-2	5	1	0.8%	-0.1
54	O=C(O)CCNS(=O)(=O)c1ccc(Oc2ccccc2Cl)cc1	-1.4	-12	-2	0	-1.3%	-0.5
55	CC(Oc1cccc(F)c1)C(=O)Nc1ccc(N2CCOCC2)cc1 (configuration not stated)	11	-1	-8	-1	1.0%	3.7
56	Cc1ccc(S(=O)(=O)N2CCN(C(=O)[C@H](Cc3ccccc3)NC(=O)c3ccco3)CC2)cc1C	-2.4	-9	20	-4	0.7%	0.5
57	Cc1ccccc1OCC(=O)NNC(=O)CN1C(=O)c2ccccc2C1=O	-0.1	-16	2	13	0.4%	2.3
58	Cn1cccc1/C=N/N1CCN(Cc2ccccc2Cl)CC1	-6.6	-19	-12	?	4.1%	0.2
59	COc1ccccc1N(CC(=O)Nc1c(C)n(C)n(-c2ccccc2)c1=O)S(=O)(=O)c1ccc(C)cc1	-4.4	-3	-13	8	0.7%	1.1
60	CCCCNC(=O)C1c2ccccc2OCC(=O)N1CCc1c[nH]c2ccccc12 (configuration not stated)	.	.	0	2	-1.1%	-0.3
61	CC(C)(CC(=O)O)Cc1nc(-c2ccc(Cl)cc2)no1	-3.0	-6	6	5	0.5%	-0.2
62	CN(Cc1ccccc1)C(=O)c1ccc(NC(=O)Cc2cccc(NC(=O)C3CCN(C(=O)C4CCC4)CC3)c2)cc1	1.6	-7	-3	-2	0.4%	-0.6
63	Cc1cccc(C)c1NC(=O)c1ccc(-n2cncn2)nc1	2.6	-7	4	4	0.0%	0.5
64	CCCC(=O)Nc1nnc(C2CCCO2)s1 (configuration not stated)	-2.3	-4	15	10	3.0%	-0.1

# From PubChem
